From PubChem BioAssay
UCH37 DUB inh – inhibitors of human UCH37 deubiquitinase, primary screen, biochemical, Ub-AMC cleavage, fluorescence. inhibition, % (test concentration not listed). 330,000 tested, 0.33% active. purified proteasome/UCH37;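 active means mean of two replicates above 20%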;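 further: 0% = compound-free wells with enzyme and 100% = wells lacking proteasome; stock transfer was 100 nL into about 20 µL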
Target sequence (Q9Y5K5 whole entry, looked up): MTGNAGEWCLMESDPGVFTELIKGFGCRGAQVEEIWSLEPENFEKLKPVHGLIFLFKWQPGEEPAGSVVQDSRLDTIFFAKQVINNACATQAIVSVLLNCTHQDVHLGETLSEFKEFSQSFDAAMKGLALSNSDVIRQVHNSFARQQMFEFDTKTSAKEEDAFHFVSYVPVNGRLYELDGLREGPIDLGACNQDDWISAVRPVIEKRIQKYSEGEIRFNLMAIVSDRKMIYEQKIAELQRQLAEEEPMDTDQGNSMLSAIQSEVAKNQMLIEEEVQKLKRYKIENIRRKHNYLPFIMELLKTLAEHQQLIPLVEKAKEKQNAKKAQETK
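assay system = human UCH37 enzyme supplied as purified proteasome complex | amount = proteasome at 0.15 nM in the dispensed enzyme solution | schedule = 30 min compound-proteasome preincubation then 25 min substrate reaction, room temperature | measured by = fluorescence, ex 355 nm, em 460 nm | benchmarks = no-proteasome wells (full inhibition) and compound-free wells (no inhibition)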
Ecoli growth – E. coli growth inhibition, primary screen, OD600; Escherichia coli growth, 23 h; stronger effect = lower value; 330,000 tested, 0.21% active; OD600 absorbance (concentration not given with the values);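 active means OD600 absorbance below the run mean of sample wells minus 3.6 SD, in any replicate, cut at about 0.56 in these data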;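 further: stock transfer was 300 nL into about 60 µL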
Starred values were filed as active, the others as inactive.

SMILES	UCH37 DUB inh	Ecoli growth
Cc1c(C(=O)NN=Cc2ccc(N(C)C)cc2)[nH]c2ccc(Cl)cc12	-17	0.76
O=c1c(=Cc2ccc([N+](=O)[O-])cc2)sc2n1CCCN=2	4.4	0.81
Cc1cc(C(=O)NN=Cc2cccnc2)c(C)o1	3.6	0.7
CCOc1ccc(CC(=O)NN=Cc2cccnc2)cc1	4.6	0.64
CCN(CC)c1ccc(C=NN2CC(=O)NC2=S)cc1	-2.4	0.71
O=C(NN=Cc1cccc(OC(=O)c2ccc3c(c2)OCO3)c1)c1cncc(Br)c1	4.2	0.67
COc1cc(C=NNS(=O)(=O)c2ccc(C)cc2)ccc1OCc1ccc(C(=O)O)cc1	4.0	0.66
COc1cc(OC)c(C=NNC(=O)Cn2nc([N+](=O)[O-])cc2C)c(OC)c1	3.5	0.69
CC(C)Oc1ccc(Br)cc1C=NNC(N)=S	3.6	0.61
Cc1nnc(SCC(=O)NN=Cc2cn(-c3ccccc3)nc2-c2ccc(F)cc2)n1-c1ccccc1	1.4	0.78
Cc1cc(NN=C2CC(C)CC(C)(C)C2)nc2ccccc12 (stereo not given)	-6.2	0.59
CCc1ccc(C(C)=NNC(=O)c2c[nH]c3ccccc23)s1	3.1	0.65
O=C(CNC(=O)c1ccccc1F)NN=Cc1cc(Br)ccc1OCc1ccccc1	6.1	0.7
CC1C(=NO)CC(c2ccccc2)N(C)C1c1ccccc1 (stereo not given)	2.8	0.65
CC(=O)Nc1cccc(C(C)=NNc2ccc(S(=O)(=O)Nc3ccccc3C(=O)O)cc2[N+](=O)[O-])c1	18	0.68
COC(=O)c1ccc(NC(=O)CON=C2CCCc3nonc32)cc1	-3.0	0.72
CC(=NNC(=O)C1CC1)c1ccc(C)c(C)c1	2.5	0.69
O=C(NN=Cc1ccc(Cl)cc1)c1cc(-c2cccnc2)nc2ccccc12	2.1	0.72
CC(=NNC(=O)c1ccc(Cl)cc1)c1cccc(NC(=O)C(C)C)c1	4.3	0.72
COc1ccc(C=NOC(=O)c2ccc(Cl)cc2)c(Cl)c1OC	1.8	0.67
O=C(NN=C/C(Cl)=C\c1ccccc1)c1cccs1	4.6	0.63
Nc1nonc1-n1nnc(C(=O)NN=Cc2cccc(F)c2)c1-c1ccc2c(c1)OCO2	-1.5	0.64
CC1CCCC(C)N1C(=O)COc1ccc(C(=O)NN=Cc2ccc(C(=O)O)cc2)cc1 (stereo not given)	2.6	0.71
COc1ccc(C=NNC(=O)C2C3CCCCC32C)cc1OC (stereo not given)	5.6	0.63
Cc1ccccc1S(=O)(=O)N=C(c1ccccc1)N(C)C	4.8	0.7

Additional compounds.
SMILES	UCH37 DUB inh	Ecoli growth
O=C(Cn1ccc(C(F)(F)F)n1)NN=Cc1ccc2c(c1)OCO2	0.4	0.72
CC(C)NC(=O)CC(=O)NN=Cc1ccccc1C(=O)O	0.2	0.64
NC(=S)NN=Cc1ccc(-c2ccc(SC(F)F)cc2)o1	-51	0.68
CC(CCc1ccc2c(c1)OCO2)=N/N=C1/NC(=O)CC(C(=O)Nc2ccc(Cl)cc2)S1 (stereo not given)	6.2	0.71
Cc1cc(C=Nn2cnnc2)c(C)n1-c1ccc(OCc2ccc(Cl)cc2Cl)cc1	0.8	0.72
Cc1cc(C)n(-c2nnc(C)n2N=Cc2ccco2)n1	1.6	0.64
Clc1cncc(Cl)c1NN=Cc1ccccc1	5.8	0.7
CN(C)c1ccc(C=NNC(=O)c2cccc(C(=O)NN=Cc3ccc(N(C)C)cc3)n2)cc1	10	0.67
COc1ccc(Br)cc1C=NNc1cccc(C(=O)O)c1	4.1	0.71
CC1(C(=O)NN=Cc2ccc([N+](=O)[O-])o2)CC1(Br)Br (stereo not given)	9.7	0.61
O=C(NN=Cc1ccc2c(c1)OCO2)c1ccc(COc2cccc3cccnc23)cc1	2.9	0.69
COc1cc(C=NNC(=O)CC(=O)NC2CCCCC2)ccc1O	-6.3	0.68
CCOc1ccc2nc(N=Cc3c(C)[nH]n(-c4ccccc4)c3=O)sc2c1	8.8	0.67
O=[N+]([O-])c1cc(S(=O)(=O)N2CCCC2)ccc1NN=C1CCCc2ccccc21	8.6	0.74
Cc1ccc(C=NNC(=O)CNC(=O)c2cccs2)o1	6.2	0.65
CCCCCC(=O)NN=C(C)c1ccc(Cl)cc1	2.8	0.71
CC(=NOC(=O)c1c(F)cccc1F)c1nccs1	1.9	0.67
Cc1ccc[n+](-c2[nH]c(=O)sc2C=N/N=C(\[O-])c2cccnc2)c1	2.4	0.64
S=c1[nH]nc(C2CCCCC2)n1N=C/C=C/c1ccccc1	4.3	0.64
CC(=NNC(=O)c1cccc(S(=O)(=O)N2CCCC2)c1)c1ccncc1	2.7	0.67
CCc1ccc2[nH]c3nc(NN=Cc4ccc(O)cc4O)nnc3c2c1	1.6	0.72
Cc1ccc(C=NNC(=O)c2cc3c(ccc4ccccc43)o2)cc1[N+](=O)[O-]	1.0	0.77
O=C(O)COc1ccccc1C=NNC(=O)CSc1nnc(SCc2ccccc2)s1	2.5	0.67
Cc1ccsc1C=Nn1c(-c2ccccc2)n[nH]c1=S	1.0	0.71
COc1cccc(C=Nn2c(-c3cc(C)[nH]n3)n[nH]c2=S)c1	3.0	0.7

(list continues)
SMILES	UCH37 DUB inh	Ecoli growth
CC(CC1CC(COCCC(C)C)OC1=O)=NNC(N)=S (stereo not given)	3.7	0.71
CC(C)C(=NNS(=O)(=O)c1ccc(Br)cc1)c1cccs1	4.4	0.74
O=C(NN=Cc1ccccc1)c1ccc(-c2ccccc2)cc1	3.4	0.71
Cc1ccc(C=c2sc3nnc(-c4ccccc4Cl)n3c2=O)o1	3.6	0.67
COc1cc(C(=O)NCC(=O)NN=Cc2cccc(OC(=O)c3ccco3)c2)cc(OC)c1OC	-0.4	0.73
Cc1[nH]c(C(=O)NN=Cc2ccc(N(C)C)cc2)c(C)c1C(=O)NN=Cc1ccc(N(C)C)cc1	-106	0.69
S=c1[nH]nc(-c2ccco2)n1N=Cc1ccc(Cl)cc1	5.0	0.69
COc1ccccc1/C=C/C(=O)NCC(=O)NN=C(CCC(=O)O)c1ccccc1	-24	0.7
CCOc1ccc(-c2c(C(=O)NN=C(C)c3cccnc3)nnn2-c2nonc2N)cc1	1.5	0.67
CCOc1ccc(C=NNC(=O)Cc2csc(Nc3cccc(C(F)(F)F)c3)n2)cc1	0.7	0.75
Brc1ccccc1C=NNc1ccccn1	0.2	0.73
CCCOc1ccc(C=NNc2ccccn2)cc1OC	1.6	0.72
O=C(NN=Cc1ccc(Cl)c([N+](=O)[O-])c1)c1ccc2c(c1)OCCO2	3.7	0.67
COc1ccc(OC)c(C=NNC(=O)c2cnccn2)c1	10	0.67
Cc1ccc(-c2csc(NN=Cc3ccco3)n2)cc1	1.4	0.67
Cc1noc(C)c1C=NNc1ccc2ccccc2n1	-9.2	0.68
CC(=NNC(=S)NCC(C)(C)C)c1cc(F)cc(F)c1O	-5.3	0.63
Cc1cc(C)n(CC(=O)NN=Cc2ccc3c(c2)OCO3)n1	1.9	0.7
CCn1cc(C=NNC(=O)COc2cccc(C)c2C)c(C)n1	2.6	0.66
Cc1ccc(S(=O)(=O)N=C(CN2CCOCC2)N2CCOCC2)cc1	5.2	0.71
COc1ccc(C=NNc2nc(-c3cccnc3)nc3ccccc23)c(OC)c1	-34	0.67
CC(=Nn1c(C)cc(C)c(C#N)c1=O)c1cccs1	8.7	0.64
Cc1cccc(NC(=O)C(=O)NN=Cc2ccncc2)c1	1.2	0.64
COc1cc(OC)cc(C(=O)NN=Cc2ccc(OC)c(COc3ccc(F)cc3)c2)c1	4.0	0.71
CCCCOc1ccc(C=NNc2cc(N3CCOCC3)nc(C)n2)cc1	3.0	0.67

Arranged by length of the SMILES (high to low): 6 of the compounds above
SMILES	UCH37 DUB inh	Ecoli growth
Cc1ccc[n+](-c2[nH]c(=O)sc2C=N/N=C(\[O-])c2cccnc2)c1	2.4	0.64
COc1ccccc1/C=C/C(=O)NCC(=O)NN=C(CCC(=O)O)c1ccccc1	-24	0.7
O=C(Cn1ccc(C(F)(F)F)n1)NN=Cc1ccc2c(c1)OCO2	0.4	0.72
COC(=O)c1ccc(NC(=O)CON=C2CCCc3nonc32)cc1	-3.0	0.72
CCN(CC)c1ccc(C=NN2CC(=O)NC2=S)cc1	-2.4	0.71
CC(=NOC(=O)c1c(F)cccc1F)c1nccs1	1.9	0.67

Quoted at random: 2 entries already listed.
SMILES	UCH37 DUB inh	Ecoli growth
Cc1ccc(C=NNC(=O)CNC(=O)c2cccs2)o1	6.2	0.65
CC(=NNC(=O)c1cccc(S(=O)(=O)N2CCCC2)c1)c1ccncc1	2.7	0.67

Remaining list, next part:
SMILES	UCH37 DUB inh	Ecoli growth
COc1ccc(Br)cc1C=NNc1ccc(Cl)c(C(=O)O)c1	2.7	0.7
CN(C(=NS(=O)(=O)c1cccs1)c1ccccc1)c1ccccc1	1.7	0.7
CCn1c(O)c(C=NN=C2CCCC2)c2ccc(C3=NNC(=O)CC3)cc21	6.9	0.71
O=C(COc1cccc2ccccc12)NN=Cc1ccncc1	3.0	0.7
CC(=NNc1nccnc1Cl)c1ccc(Cl)c(Cl)c1	4.3	0.6
CCOC(=O)c1ccc(-c2ccc(C=NNC(=O)CN(c3ccccc3Cl)S(C)(=O)=O)o2)cc1	-168	0.73
CCCc1c(C(=O)NN=C/C(C)=C/c2ccco2)nnn1-c1nonc1N	-32	0.73
COc1ccccc1N1CCN(N=Cc2cccc(OC)c2O)CC1	2.6	0.71
CC(=NNC(=O)c1c(Cl)c(C)nn1C)c1cccc(NC(=O)c2cccc(F)c2)c1	2.7	0.73
CCCCCCC(=O)Nc1ccc(C(=O)NN=Cc2cccnc2)cc1	1.8	0.74
O=C(NN=Cc1ccoc1)c1ccccc1	1.2	0.73
COc1cc(C(=O)NCC(=O)NN=C(C)/C=C/c2ccccc2)cc(OC)c1OC	-0.3	0.68
Cc1nc(CC(=NNc2ccccc2)c2ccc(O)cc2O)cs1	8.2	0.62
COc1ccc(C=NNC(=S)Nc2c(C)n(C)n(-c3ccccc3)c2=O)cc1OC	13	0.67
CCN(CC)c1ccc(C=NNC(=S)NCc2ccco2)cc1	-67	0.71
O=C(CNC(=O)c1ccc([N+](=O)[O-])cc1)NN=Cc1ccc(OC(=O)c2ccccc2)cc1	3.2	0.73
C=CCNC(=S)NN=C(C)c1cccc(OC)c1	1.3	0.67
O=C(NCCCN1CCOCC1)C(=O)NN=Cc1ccc(F)cc1	2.7	0.71
CCOC(=O)c1c(N=CN(C)C)sc(C(=O)OC)c1C	13	0.7
O=C(NN=C1CCSC1)c1cccc([N+](=O)[O-])c1	1.1	0.7
CCOc1ccc(C=Nn2c(-c3ccccc3)n[nH]c2=S)cc1	2.8	0.71
CCC(=NNC(=O)c1ccccc1O)c1c(C)[nH]n(-c2ccccc2)c1=O	-10	0.64
C=CCN1C(=O)CSC1=Nc1nccs1	2.6	0.73
O=C(NN=Cc1ccc[nH]1)c1ccccc1O	8.9	0.65
COc1cccc(C=NNC(=O)C(=O)NCc2ccco2)c1O	1.0	0.65

Taken from above.
Result for CCCCCCC(=O)Nc1ccc(C(=O)NN=Cc2cccnc2)cc1 under UCH37 DUB inh: 1.8
Result for COc1ccc(C=NNC(=S)Nc2c(C)n(C)n(-c3ccccc3)c2=O)cc1OC under Ecoli growth: 0.67

Continuation:
SMILES	UCH37 DUB inh	Ecoli growth
Cc1nn(-c2ccccc2)cc1C=NNC(N)=S	6.1	0.65
CCOC(=O)C(C#N)=NNc1cc(Cl)ccc1OC	-1.8	0.69
O=[N+]([O-])c1ccc(Cl)c(C=NNc2nc(N3CCOCC3)nc(N3CCOCC3)n2)c1	4.5	0.74
CCCCCCCC=NNc1nnc(Cc2ccccc2)c(=O)[nH]1	-0.4	0.66
NC(=O)Cn1cc(C=NNS(=O)(=O)c2ccc(F)cc2)c2ccccc21	3.6	0.68
CCC12CN3CCN(CC(C3)C1=NNC(=O)c1ccc(C(C)(C)C)cc1)C2	1.2	0.69
C=CCn1c(COc2ccc(Cl)cc2)nnc1SCC(=O)NN=Cc1cccc(O)c1	-2.0	0.8
O=c1oc2ccccc2nc1C=C(O)/C=C\c1ccccc1	5.1	0.72
CCCCC#Cc1cncc(C(=O)NN=Cc2ccccc2)c1	-2.5	0.64
O=C1CCCCCC1=NNc1ccc(OCc2ccccc2)cc1	3.0	0.63
O=C(O)c1cc(-c2ccc(C=NN3C(=O)C4C5C=CC(C6CC56)C4C3=O)o2)ccc1Cl (stereo not given)	7.7	0.69
COc1ccc(OC)c(C=NN=C2SCC(=O)N2Cc2ccco2)c1	-8.4	0.74
CC(=NNC(=O)COc1ccc(C#N)cc1)c1ccc(N2CCOCC2)cc1	-8.3	0.73
COCc1c(C(=O)NN=Cc2ccc(C)o2)nnn1-c1nonc1N	13	0.68
COc1ccc(NC(=S)NC(=NS(=O)(=O)c2ccc(C)cc2)c2ccccc2)cc1	1.7	0.64
O=C(NN=Cc1sc(=O)n(-c2ccccc2)c1Cl)c1ccccc1	7.5	0.67
CCn1c(C=NNC(=O)c2ccc(OC)cc2)nc2ccccc21	-33	0.71
C/C(C=NNc1nc(N2CCCCC2)nc(N2CCCCC2)n1)=C/c1ccccc1	6.7	0.76
CCOC(=O)c1ccccc1OCc1cc(C=Nn2cnnc2)ccc1OC	0.5	0.71
CCOC(=O)NN=Cc1c(C)nn(-c2cccc(C(F)(F)F)c2)c1Cl	2.7	0.73
CC(/C=C/c1ccccc1)=NNC(=O)Cn1nc(C)cc1C	1.8	0.64
Cc1cc(C(=O)NN=C2CC(=O)CC(C)(C)C2)c2ccccc2n1	6.7	0.73
CC(Cc1ccccc1)=NNC(=O)CNC(=O)c1ccc(Br)cc1	4.3	0.73
Cc1cc(NN=Cc2ccccc2Br)nc2ccccc12	2.5	0.68

This is a subset (hit frequency here may not be typical).
